KCNQ2 pot: enhances the rat KCNQ2 potassium channel. O88943. CHO-K1 KCNQ2, FluxOR thallium flux fluorescence; active compounds read high. B-score at 10 µM. 0.54% of 310,000 active. AID 2239;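 active = fluorescence ratio B-score at least 3 SD of library B-scores, with initial fluorescence B-score within 3 SD, cut at about 5.3 in these data; same plate scores as AID 2156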;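 note: B-score of peak minus minimum over baseline fluorescence ratio after K+ and Tl+ stimulus; positive B-score means potentiation of KCNQ2 with more thallium influx and brighter signal; only the inactives scoring about 0 or higher are listed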
Target sequence (O88943 whole entry, looked up): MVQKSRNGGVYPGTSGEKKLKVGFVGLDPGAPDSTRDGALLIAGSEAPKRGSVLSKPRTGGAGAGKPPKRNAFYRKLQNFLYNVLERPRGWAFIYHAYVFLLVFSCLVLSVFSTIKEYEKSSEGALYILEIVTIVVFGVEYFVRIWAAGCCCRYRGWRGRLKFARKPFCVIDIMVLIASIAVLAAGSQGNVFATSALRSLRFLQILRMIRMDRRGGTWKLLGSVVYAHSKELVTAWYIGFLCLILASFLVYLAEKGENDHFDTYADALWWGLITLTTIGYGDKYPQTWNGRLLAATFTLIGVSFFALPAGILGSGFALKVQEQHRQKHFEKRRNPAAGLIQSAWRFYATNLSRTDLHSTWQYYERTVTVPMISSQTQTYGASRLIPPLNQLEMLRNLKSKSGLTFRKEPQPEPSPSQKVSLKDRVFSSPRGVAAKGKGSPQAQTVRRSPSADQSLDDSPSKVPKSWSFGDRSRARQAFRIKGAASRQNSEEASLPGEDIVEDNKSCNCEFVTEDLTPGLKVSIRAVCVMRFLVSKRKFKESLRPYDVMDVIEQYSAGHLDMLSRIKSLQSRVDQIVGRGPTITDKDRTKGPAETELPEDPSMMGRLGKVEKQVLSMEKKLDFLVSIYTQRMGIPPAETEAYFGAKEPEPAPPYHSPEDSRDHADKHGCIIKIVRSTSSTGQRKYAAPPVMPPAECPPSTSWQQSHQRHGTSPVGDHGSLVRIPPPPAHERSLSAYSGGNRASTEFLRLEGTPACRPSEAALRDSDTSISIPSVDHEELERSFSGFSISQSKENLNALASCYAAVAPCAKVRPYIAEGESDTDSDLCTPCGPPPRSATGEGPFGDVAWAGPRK
KCNQ2 pot baseline: recorded beside KCNQ2 pot, whose call it bears; B-score; compound at 10 µM; measured here: initial fluorescence intensity artifact check;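 brightness before thallium and not channel activity; 0 = typical well and far values either way flag optical interference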
Numbers without * were called inactive. This is a subset; the hit share may differ from the screen's.

SMILES	KCNQ2 pot	KCNQ2 pot baseline
COc1cc2c(=O)n(-c3ccc(C)cc3)c(=O)n(CC(=O)c3ccc4c(c3)OCO4)c2cc1OC	1.6	0.02
CCS(=O)(=O)CCSc1nc2ccccc2o1	0.54	0.35
O=C(Oc1ccc2ccccc2c1)c1ccco1	0.24	-1.1
Cc1cc(C(=O)COc2cccnc2[N+](=O)[O-])c(C)n1Cc1cccs1	1.2	-0.76
CCOc1ccc(C(=O)Nc2cc(C)on2)cc1	0.04	0.95
O=C(Nc1nc(-c2ccncc2)cs1)c1ccco1	0.19	1.2
CN(C1CCCCC1)S(=O)(=O)c1ccc2c(c1)c(=O)c(C(=O)NCCN1CCCC1)cn2C	1.1	-0.28
CC(=O)N1N=C(c2ccco2)CC1c1ccco1 (centres undefined)	0.58	0.16

Further structures follow.
SMILES	KCNQ2 pot	KCNQ2 pot baseline
Cc1cccc(NC(=S)N(CCN(C)C)Cc2cc3cc(C)cc(C)c3[nH]c2=O)c1	0.18	-1
COc1ccc(-c2nnc(SCc3cccc(C)c3)n2N)cc1	0.41	1.2
CN(C)c1ccc(NC(=S)N2CCN(c3ncc(C(F)(F)F)cc3Cl)CC2)cc1	0.11	0.31
O=C(O)CS(=O)CC(=O)Nc1cccc(C(F)(F)F)c1 (centres undefined)	0.01	-0.51
Cc1ccccc1C(=O)N(C)c1ccccc1C(=O)NCc1ccccc1	0.36	-0.26
COc1cccc(/C=N/NC(=O)C[n+]2ccccc2)c1OC	0.88	0.36
O=C(COC(=O)/C=C/c1ccccc1[N+](=O)[O-])Nc1ccc(OCc2ccccc2)cc1	1.1	1.3
CCn1c(SCC(=O)Nc2nonc2C)nnc1-c1ccoc1C	0.79	0

The results go on.
SMILES	KCNQ2 pot	KCNQ2 pot baseline
CCS(=O)(=O)Nc1cccc(C2=NN(S(=O)(=O)CC)C(c3ccccc3)C2)c1 (centres undefined)	1.1	0.68
Nc1nc(N)c(C=Nc2ccc(Br)cc2)c(Nc2ccc(Br)cc2)n1	1.4	1.3
CCN(CC)S(=O)(=O)c1ccc2oc(SCC(=O)NC3CC3)nc2c1	1.6	0.05
O=C(O)c1ccccc1C(=O)Nc1nc(-c2ccccc2)cs1	0.88	0.82
Cc1ccc(C(=O)NC(=S)Nc2ccc3[nH]c(=O)[nH]c3c2)cc1C	0.22	0.7
Cc1ccc(CNC(=S)NCc2ccncc2)cc1	0.02	0.25
CCc1cc(C)c(O)c(CC)n1	0.68	0.88
COc1cc(C#N)c(NS(=O)(=O)c2ccc3[nH]c(=O)sc3c2)cc1OC	0.12	1.6

Later entries:
SMILES	KCNQ2 pot	KCNQ2 pot baseline
CCOC(=O)C1=C(O)/C(=C/c2ccc(OCC(=O)O)c(OCC)c2)SC1=Nc1ccc(OC)cc1	0.11	-0.66
CCOc1ncccc1-c1nc(-c2cccs2)no1	0.75	1.3
CC(=O)Nc1ccc(NC(=O)CN(C)S(=O)(=O)c2ccc3c(c2)CCC(=O)N3)cc1	0.86	-1.8
CCc1nnc(NC(=O)CSc2nnc(-c3cccnc3)n2C)s1	1.8	1.1
NC(=O)c1ccsc1NC(=O)COC(=O)COc1ccccc1F	1.7	-0.12
CC(C)C(=O)c1cn(CC(=O)N2CCCc3ccccc32)c2ccccc12	1	-0.87
Cc1onc(-c2ccccc2)c1CNS(=O)(=O)c1cccc(Br)c1	0.46	-2.9
COc1ccccc1NS(=O)(=O)c1cc(NC(=O)CCNC(C)=O)ccc1C	1.4	-0.27

Single records (already shown). Order of screens: KCNQ2 pot	KCNQ2 pot baseline
Cc1onc(-c2ccccc2)c1CNS(=O)(=O)c1cccc(Br)c1 in the list: 0.46	-2.9
CCOC(=O)C1=C(O)/C(=C/c2ccc(OCC(=O)O)c(OCC)c2)SC1=Nc1ccc(OC)cc1 in the list: 0.11	-0.66
COc1ccccc1NS(=O)(=O)c1cc(NC(=O)CCNC(C)=O)ccc1C in the list: 1.4	-0.27

Later entries.
SMILES	KCNQ2 pot	KCNQ2 pot baseline
CC1CN(C(=O)c2ccc(S(=O)(=O)Nc3cccc(C(F)(F)F)c3)cc2)CC(C)O1 (centres undefined)	0.87	1.1
Cc1ccc(NC(=O)CS(=O)CC(=O)NC(C)CCc2ccco2)cc1Cl (centres undefined)	0.23	1.6
O=C(CN1CCCC1)N1c2ccccc2Sc2ccccc21	1.9	-0.75
CCOc1ccc(N=C(C)c2ccccc2O)cc1	0.14	0.25
Cc1sc(N)nc1-c1c(C)n(C)c2ccccc12	0.88	1.4
Cc1c(C)c2ccc(OCC(=O)Nc3ccc(CN4CCOCC4)cc3)cc2oc1=O	1.6	0.03
CCOc1ccc(NC(=O)C(c2ccccn2)N(C(=O)CCl)c2ccc(OC)cc2)cc1 (centres undefined)	0.18	-0.38
COc1ccc(CCN2CC34C=CC(O3)C(C(=O)NCc3ccccc3Cl)C4C2=O)cc1OC (centres undefined)	0.05	0.27

(continued)
SMILES	KCNQ2 pot	KCNQ2 pot baseline
Cc1cc(C)c(NS(=O)(=O)c2c(C(=O)N3CCOCC3)c(C)n(C)c2C)c(C)c1	1.4	-0.28
CC1=C(C(=O)OCc2ccccc2)C(c2cccnc2)n2ncnc2N1 (centres undefined)	1	0.45
Cc1ccc(N2C(=O)C3ON(c4ccccc4)C(c4ccncc4)C3C2=O)cc1 (centres undefined)	0.55	0.33
COc1ccc(CCNC(=O)C(=O)NCC2OCCN2S(=O)(=O)c2ccc(Br)cc2)cc1 (centres undefined)	0.06	0.11
Cc1ccc(S(=O)(=O)NCC(=O)OCC(=O)NCc2cccs2)cc1	0.02	2.1
CCOC(=O)N1CCN(S(=O)(=O)c2c(C)nc3scc(C)n3c2=O)CC1	0.09	1.9
CC(C)C(NC(=O)c1ccccc1)c1nnc(SCC(=O)NC2CCCC2)n1C (centres undefined)	0.1	-1.1
O=C(CS(=O)c1ccc(Br)cc1)N1CCOCC1 (centres undefined)	1.9	-0.04

(list continues)
SMILES	KCNQ2 pot	KCNQ2 pot baseline
O=C(CSc1ccc(Br)cc1)Nc1ccccc1Oc1ccccc1	5.1	-3.1
O=C1CSC(=Nc2ccc(F)cc2)N1	0.89	-2.1
Cc1ccc(OCC(=O)Nc2ccccc2C(=O)NC2CC2)cc1C	0.09	0.78
CC(=O)c1ccc(NC(=O)Nc2ccc3c(c2)N(C)C(=O)CS3)cc1	1.5	-1.1
O=C(COC(=O)CNS(=O)(=O)c1ccc2ccccc2c1)Nc1ccccc1Sc1ccccc1	0.11	0.01
CN(C)c1cc[n+](CC(=O)Nc2c(Cl)cc(Cl)cc2Cl)cc1	0.91	-1.3
O=[N+]([O-])c1ccc(N2CCN(CCO)CC2)cc1Sc1nc2ccccc2[nH]1	1.1	0.25
Cc1ccc(CCNC(=O)c2nnn(-c3cccc(C)c3)c2N)cc1	0.47	0.25

(continued)
SMILES	KCNQ2 pot	KCNQ2 pot baseline
CCOC(=O)C1CCN(CCC(=O)Nc2cccc(C)c2)CC1	0.88	0.25
COc1ccc(Cn2c(=S)[nH]c3ccsc3c2=O)cc1	1.9	1.4
COc1ccc(-n2nc(C(=O)N3CCCCC3)c(C)c(C#N)c2=O)cc1	1.7	0.74
Nc1cc(OC(=O)c2cccs2)nn1S(=O)(=O)c1ccc(F)cc1	0.73	-0.47
COC(=O)c1cc(S(=O)(=O)Nc2ccsc2C(=O)OC)oc1C	1.1	-0.18
O=C(CN1CCOCC1)Nc1cc(C(F)(F)F)ccc1Cl	0.11	0.12
O=[N+]([O-])c1ccc(O)c(N=Cc2sc3ccccc3c2O)c1	1.2	0.02
CCCC(c1nnnn1Cc1cccs1)N1CCN(C2CCCC2)CC1 (centres undefined)	0.49	1.3

Other structures follow:
SMILES	KCNQ2 pot	KCNQ2 pot baseline
CCC1CCCCN1S(=O)(=O)c1ccc2[nH]c(=O)ccc2c1 (centres undefined)	0.16	-0.58
Cc1ccccc1C(=O)NC(C)c1ccc2c(c1)CCCC2 (centres undefined)	2.4	-0.48
O=C(CCN1C(=O)C2C3C=CC(C3)C2C1=O)N1CCN(c2ccccc2Cl)CC1 (centres undefined)	0.81	-0.94
CCOc1ccc2c(=O)c(Oc3ccccc3)c(C)oc2c1	0.96	0.08
O=C(Nc1ccc(O)cc1)c1c(O)c2c([nH]c1=O)CCCC2	0.01	2.1
COc1ccc(CN2CCNC(=O)C2CC(=O)NC2CCC2)c(OC)c1 (centres undefined)	1.1	1
CC1=C(C(N)=O)C(c2cccc(OCc3ccccc3)c2)n2nnnc2N1 (centres undefined)	0.47	0.54
O=C(CNC(=O)c1ccc(Cl)cc1)N/N=C/C=C/c1ccccc1	0.27	-0.91

More compounds follow:
SMILES	KCNQ2 pot	KCNQ2 pot baseline
Cc1cccc(Nc2nccc(N(C)C)c2C#N)c1	1.2	-2.2
Cc1ccc(NC(=O)C2CCCN(c3ncnc4c3nc3n4CCCCC3)C2)cc1Cl (centres undefined)	1.3	-1.6
CC(C)N1CC(C(=O)Nc2ccc(Cl)c([N+](=O)[O-])c2)CC1=O (centres undefined)	0.38	1.3
CCc1nnc(NC(=O)c2ccc(-c3ccc(F)cc3)o2)s1	0.21	1.1
Cc1nn(CC(=O)OC(C)C(=O)Nc2ccccc2[N+](=O)[O-])c(C)c1[N+](=O)[O-] (centres undefined)	0.87	-0.39
O=C(NCCNC(=O)C(F)(F)F)c1ccncc1	0.33	-0.09
Cc1ccc(S(=O)(=O)N2CCC(=O)N(CCOC(=O)Nc3cccc(Cl)c3)CC2)cc1	0.87	-1.7
Cc1ccc(S(=O)(=O)N2CCOCC2)cc1NC(=O)CSc1nc(N)cc(=O)[nH]1	0.29	-1.4

Molecules from the list above containing bromine:
SMILES	KCNQ2 pot	KCNQ2 pot baseline
Nc1nc(N)c(C=Nc2ccc(Br)cc2)c(Nc2ccc(Br)cc2)n1	1.4	1.3
Cc1onc(-c2ccccc2)c1CNS(=O)(=O)c1cccc(Br)c1	0.46	-2.9
COc1ccc(CCNC(=O)C(=O)NCC2OCCN2S(=O)(=O)c2ccc(Br)cc2)cc1 (centres undefined)	0.06	0.11
O=C(CS(=O)c1ccc(Br)cc1)N1CCOCC1 (centres undefined)	1.9	-0.04
O=C(CSc1ccc(Br)cc1)Nc1ccccc1Oc1ccccc1	5.1	-3.1

(list continues)
SMILES	KCNQ2 pot	KCNQ2 pot baseline
CCOC(=O)N1CCN(c2c(NCCN3CCN(c4ccccc4F)CC3)c(=O)c2=O)CC1	0.44	1.1
COC(=O)c1sc(NC(=O)C2CCCO2)c(C(=O)OC)c1C (centres undefined)	0.36	-1.5
OC(CNc1ccccc1)COc1ccc(OCC(O)CNc2ccccc2)cc1 (centres undefined)	0.14	-0.41
Cc1ccccc1Cn1nc(C)c(NC(=O)/C=C/c2cnn(C)c2)c1C	0.08	2.2
CCOC(=O)C1CN(S(=O)(=O)c2ccc(OC)cc2)c2ccccc2O1 (centres undefined)	0.01	0.6
COC(C[C@@H]1O[C@H]1[C@H](O)[C@@H](C)OCc1ccccc1)OC	1.4	0.01
COc1ccc(Oc2nc3ccccc3nc2C(F)(F)F)cc1	0.16	0.03
O=C(Nc1cccc(S(=O)(=O)N2CCOCC2)c1)c1cc([N+](=O)[O-])ccc1N1CCOCC1	1.2	-0.86

Following part:
SMILES	KCNQ2 pot	KCNQ2 pot baseline
Cc1ccc(-n2ncc3c(NCc4cccnc4)ncnc32)c(C)c1	0.02	-2
CC(=O)c1c(C(=O)O)c2ccccc2[nH]c1=O	1.1	-0.58
Cc1nc(Nc2ccc(C(=O)O)cc2)sc1-c1ccccc1	2.5	0.57
COc1ccc(N(CC(=O)NC2CCCC2)C(=O)Cn2nnc(-c3ccc(C)o3)n2)c(OC)c1	0.68	0.76
COc1ccc(N2CC(C(=O)OCC(=O)Nc3cccc(C)c3C)CC2=O)cc1 (centres undefined)	1	0.02
CC1(C)CC(N2CN(C3CCCCC3)CC2=O)CC(C)(C)N1	0.1	1.3
O=C(CSc1ccc(Cl)cc1)Nc1ccc(NC(=O)c2ccco2)cc1	0.01	-0.11
O=C(NC(=S)NCC1CCCO1)c1ccc(Br)o1 (centres undefined)	1.8	-1.6

Carrying on.
SMILES	KCNQ2 pot	KCNQ2 pot baseline
C/C(CC(=O)Nc1cccc(C(F)(F)F)c1)=N\NC(=O)C(=O)NCC(C)C	0.81	-2.4
COc1ccc(OCC(=O)OCC(=O)NCc2ccco2)cc1	0.69	-0.53
Cc1cc(N2CCN(c3nc(-c4ccc([N+](=O)[O-])cc4)cs3)CC2)c2ccccc2n1	0.92	0.45
Cc1ccc(S(=O)(=O)N2CCOCC2)cc1C(=O)Nc1ccc2c(c1)CCC2	0.04	0.13
Cc1ccn(CCNC(=O)C2CCC(=O)N(Cc3ccc(Cl)cc3)C2)n1 (centres undefined)	0.36	-1.9
CCCC(C(=O)NCC1CCCO1)N(C(=O)CNS(=O)(=O)c1ccccc1)c1ccc(F)cc1 (centres undefined)	0.93	2.3
Cc1cccc(NC(=S)N(CCCN2CCOCC2)Cc2ccccn2)c1	0.36	-0.47
CCOC(=O)C1CCN(S(=O)(=O)c2ccc3c(c2)CC(C)N3C(=O)C2CC2)CC1 (centres undefined)	0.03	-0.37

Going on with the list:
SMILES	KCNQ2 pot	KCNQ2 pot baseline
COc1cccc(CNC(=O)CCNS(=O)(=O)c2ccc3[nH]c(=O)oc3c2)c1	0.43	-0.82
O=C1[C@H]2C(c3ccccc3)=NN(c3ccccc3)[C@H]2C(=O)N1c1ccccc1	2.5	-1.2
O=C(CSc1nc(N2CCOCC2)nc(N2CCOCC2)n1)Nc1cccc(C(F)(F)F)c1	3.3	-0.02
CCOC(=O)C(CC)n1cnc2c(nnn2-c2ccccc2)c1=O (centres undefined)	0.9	-0.66
C=COCCNC(=O)C1CC(=O)N(c2ccc(C)cc2)C1 (centres undefined)	0.31	0.45
C=CCNC(=O)C1CCN(S(=O)(=O)c2ccc3ccccc3c2)CC1	0.06	-1
COc1cccc(C2c3c(-c4ccccc4O)n[nH]c3C(=O)N2Cc2ccco2)c1 (centres undefined)	0.24	-3

Screens (PubChem)
